Compound activity: PubChem, Broad Institute
Vaccinia inh – blocks a specific stage of Vaccinia orthopoxvirus infection, primary screen, cell-based, single point | activity change (mCherry), % (test concentration not listed) | Vaccinia-infected cells, mCherry/Venus stage reporter fluorescence; active compounds read low; some inactives read as strong as hits | 0.01% of 89,000 active;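 active means mCherry past -33% and 40 or more points under the early reporter, replicates agreeing; inconclusive means past -33% without that gap or agreement; tested in A549 cells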;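 further: scaled between vehicle wells and reference inhibitor wells; 23 nL library stock went into each well; one replicate is shown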
Vaccinia inh Venus – also measured in Vaccinia inh; calls as there; activity change (Venus), %; measured here: Venus reporter, other viral stage;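 negative = less Venus signal; first of two replicates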
* = called active by the depositor; ? = inconclusive; . = not tested or not shown; & = joins results of further samples. A portion of the library. The share of hits here may be higher or lower than overall.

SMILES | Vaccinia inh | Vaccinia inh Venus
CO[C@H]1CC[C@H]2CCOc3c(C#N)cccc3C(=O)N(C)C[C@H](C)C(=O)N(C)C[C@@H]1O2 | 4 | 3
CN(C)CC(=O)N[C@H]1CC[C@H](CC(=O)O)O[C@H]1CO | 15 | 1
Cc1noc(C)c1NC(=O)NCC[C@H]1CC[C@@H](NC(=O)Nc2cccc(F)c2)[C@@H](CO)O1 | 6 | 10
COc1ccc(S(=O)(=O)Nc2ccc3c(c2)C(=O)N([C@H](C)CO)C[C@@H](C)[C@@H](CN(C)C(=O)CCCN(C)C)OCCCC[C@H](C)O3)cc1 | 22 | 9
Cc1ccccc1S(=O)(=O)N1C[C@H]2[C@@H](c3ccccc31)[C@H](CO)N2C(=O)CC1CC1 | -6 | 10
CO[C@H]1CN(C)C(=O)c2cc(NC(=O)Nc3cc(F)ccc3F)ccc2OC[C@H](C)NC[C@H]1C | -19 | -14
O=C(C[C@@H]1CC[C@@H]2[C@H](COC[C@H](O)CN2Cc2cccc(F)c2)O1)NCCc1ccncc1 | 5 | 3
C[C@@H]1CN([C@H](C)CO)C(=O)c2cc(NS(=O)(=O)c3ccc(Cl)cc3)ccc2O[C@@H](C)CCCCO[C@@H]1CN(C)S(=O)(=O)c1ccc(F)cc1 | -25 | -22
O=C(N[C@H]1CC[C@@H](CCNC(=O)C2CCC2)O[C@H]1CO)c1ccncc1 | -8 | -1
O=C(C[C@H]1CC[C@H](NC(=O)Nc2ccc3c(c2)OCO3)[C@@H](CO)O1)NCc1ccc2c(c1)OCO2 | 20 | 10
Cc1cccc(S(=O)(=O)N[C@H]2CC[C@@H](CCNC(=O)Nc3cc(F)ccc3F)O[C@@H]2CO)c1 | -9 | -9
C[C@@H]1CN([C@@H](C)CO)C(=O)Cc2cc(NC(=O)NC3CCCCC3)ccc2O[C@H]1CN(C)Cc1ccc(C(F)(F)F)cc1 | ? | .
O=C(c1ccc(F)cc1)N1C[C@@H]2[C@H](c3ccccc31)[C@@H](CO)N2Cc1ccc2c(c1)OCO2 | 10 | -3
C[C@H]1CN([C@@H](C)CO)C(=O)CCCn2cc(nn2)CO[C@@H]1CN(C)S(=O)(=O)c1ccccc1F | 10&17 | 10&18
COc1ccc(C(=O)Nc2ccc3c(c2)C(=O)N(C)C[C@H](OC)[C@@H](C)CN(C)[C@H](C)CO3)cc1 | -6 | -1
CCCNC(=O)N(C)C[C@@H]1Oc2cc(C#Cc3ccccn3)ccc2S(=O)(=O)N([C@@H](C)CO)C[C@H]1C | 1 | -2
O=C1O[C@@H](c2ccccc2)[C@@H](c2ccccc2)N2[C@@H](c3ccc(O)cc3)[C@]3(C(=O)Nc4ccc(C#CC5(O)CCCCCC5)cc43)[C@@H](C(=O)NC[C@H](O)c3ccccc3)[C@H]12 | 25 | 15
CN(C)CC(=O)N[C@@H]1CC[C@@H](CCn2cc(CN(C)C)nn2)O[C@@H]1CO | 14 | 1
COCC(=O)N1C[C@H](C)[C@@H](OC)CN(C)C(=O)c2cc(NC(=O)c3ccc(OC)cc3)ccc2OC[C@H]1C | 21 | 8
COc1ccc(NC(=O)N(C)C[C@H]2Oc3ccc(NC(=O)c4ccncc4)cc3CC(=O)N([C@@H](C)CO)C[C@@H]2C)cc1 | 13 | 13
CO[C@H]1CN(C)C(=O)c2cc(NS(=O)(=O)c3ccccc3C)ccc2OC[C@H](C)NC[C@@H]1C | -4 | -1
CO[C@H]1CN(C)C(=O)c2cc(NC(=O)Nc3c(C)noc3C)ccc2OC[C@@H](C)N(CCC(F)(F)F)C[C@H]1C | 7 | 9
N#C[C@H]1[C@@H](c2ccc(-c3ccccc3)cc2)[C@H](CO)N1C(=O)Cc1ccccc1 | -24 | -13
O=C(c1ccccn1)N1CC(=O)N2[C@H](CO)[C@H](c3ccc(C4=CCCC4)cc3)[C@@H]2C1 | -1 | -6
C/C=C/c1ccc([C@H]2[C@H]3CN(Cc4ccccc4)CC(=O)N3[C@H]2CO)cc1 | 11 | 5
CC(C)NC(=O)N(C)C[C@@H]1Oc2ccc(NS(C)(=O)=O)cc2C(=O)N([C@@H](C)CO)C[C@H]1C | -2 | -9
C[C@@H]1CN([C@H](C)CO)C(=O)c2cc(NC(=O)CCN3CCOCC3)ccc2O[C@H]1CN(C)S(=O)(=O)c1ccc(Cl)cc1 | 2 | 4
CCCNC(=O)C[C@@H]1CC[C@H]2[C@H](COc3ccc(NC(=O)CC)cc3C(=O)N2C)O1 | 9 | 9
COc1ccc(S(=O)(=O)Nc2ccc3c(c2)C(=O)N([C@H](C)CO)C[C@@H](C)[C@@H](CN(C)C(=O)C2CCCCC2)OCCCC[C@H](C)O3)cc1 | ? | .
CN1CCN(C(=O)C[C@@H]2CC[C@H]3[C@@H](COC[C@H](O)CN3Cc3cccc(F)c3)O2)CC1 | 4 | 5
C[C@H](CO)N1C[C@H](C)[C@H](CN(C)CC2CC2)Oc2ccc(NS(=O)(=O)c3ccccc3)cc2C1=O | 18 | 11
O=C(Nc1cccc(Cl)c1)N[C@H]1CC[C@H](CCNC(=O)C2CCC2)O[C@H]1CO | -1 | 1
C[C@@H]1CN([C@H](C)CO)S(=O)(=O)c2ccc(-c3ccncc3)cc2O[C@@H]1CN(C)S(=O)(=O)c1ccccc1F | ? | .
CCC(=O)Nc1ccc2c(c1)C(=O)N(C)C[C@H](OC)[C@@H](C)CN(CC1CCCCC1)[C@H](C)CO2 | ? | .
O=C(CCN1CCCCC1)N[C@H]1CC[C@H](CCn2cc(-c3cccc(F)c3)nn2)O[C@@H]1CO | 4 | 2
COc1ccc(NC(=O)N(C)C[C@H]2Oc3ccc(NS(=O)(=O)c4c(C)noc4C)cc3CC(=O)N([C@@H](C)CO)C[C@H]2C)cc1 | -4 | -8
CC(C)NC(=O)N(C)C[C@H]1Oc2cc(C#Cc3ccc(F)cc3)ccc2S(=O)(=O)N([C@H](C)CO)C[C@H]1C | ? | .
CC(C)CC#Cc1ccc2c(c1)O[C@@H](CN(C)Cc1cncnc1)[C@@H](C)CN([C@@H](C)CO)S2(=O)=O | ? | .
C[C@@H]1CN([C@@H](C)CO)C(=O)c2c(c3ccccc3n2C)-c2ccccc2CO[C@@H]1CN(C)C(=O)[C@@H](Cc1ccccc1)N(C)C | ? | .
COc1ccc(S(=O)(=O)N(C)C[C@@H]2Oc3ccc(NC(=O)NC4CCCCC4)cc3CC(=O)N([C@@H](C)CO)C[C@@H]2C)cc1 | -16 | -14
C[C@@H]1CN([C@H](C)CO)C(=O)Cc2cc(NC(=O)Nc3ccc(F)cc3)ccc2O[C@@H]1CN(C)S(=O)(=O)c1ccccc1 | 13 | 11
CO[C@@H]1CN(C)C(=O)c2cc(NC(=O)Nc3ccc(F)cc3)ccc2OC[C@@H](C)N(C(=O)c2cnccn2)C[C@H]1C | 8 | 16
C/C=C/c1ccc([C@H]2[C@@H](CN(C)C(C)=O)N(C(=O)C3CC3)[C@H]2CO)cc1 | -3 | 5
COCC#Cc1ccc2c(c1)O[C@H](CN(C)C(=O)C1CCC1)[C@H](C)CN([C@H](C)CO)S2(=O)=O | 10 | 6
CN(C)C(=O)C[C@@H]1CC[C@@H](NC(=O)C2CCOCC2)[C@H](CO)O1 | -9 | -9
C[C@@H]1CN([C@H](C)CO)C(=O)CCCn2nncc2CO[C@H]1CN(C)C(=O)Nc1cccc2ccccc12 | 1 | 6
O=C(C[C@@H]1CC[C@H]2[C@@H](COC[C@H](O)CN2C(=O)Nc2ccccc2)O1)NCCCN1CCOCC1 | 3 | -5
CO[C@@H]1CN(C)C(=O)c2ccc(NS(=O)(=O)c3ccccc3)cc2OC[C@@H](C)N(C(=O)NC(C)C)C[C@H]1C | 9 | 7
C[C@H]1CN([C@@H](C)CO)C(=O)c2cc(NC(=O)C3CCCCC3)ccc2O[C@@H]1CN(C)Cc1ccncc1 | 28 | 22
COC(=O)[C@@H]1[C@@H](CO)[C@@H]2Cn3c(ccc(C4=CCCCC4)c3=O)[C@H]1N2CCc1ccccc1 | -22 | -13

For reference, six of the compounds above:
SMILES | Vaccinia inh | Vaccinia inh Venus
CN(C)C(=O)C[C@@H]1CC[C@@H](NC(=O)C2CCOCC2)[C@H](CO)O1 | -9 | -9
C[C@@H]1CN([C@H](C)CO)C(=O)CCCn2nncc2CO[C@H]1CN(C)C(=O)Nc1cccc2ccccc12 | 1 | 6
O=C(C[C@@H]1CC[C@H]2[C@@H](COC[C@H](O)CN2C(=O)Nc2ccccc2)O1)NCCCN1CCOCC1 | 3 | -5
CO[C@@H]1CN(C)C(=O)c2ccc(NS(=O)(=O)c3ccccc3)cc2OC[C@@H](C)N(C(=O)NC(C)C)C[C@H]1C | 9 | 7
C[C@H]1CN([C@@H](C)CO)C(=O)c2cc(NC(=O)C3CCCCC3)ccc2O[C@@H]1CN(C)Cc1ccncc1 | 28 | 22
COC(=O)[C@@H]1[C@@H](CO)[C@@H]2Cn3c(ccc(C4=CCCCC4)c3=O)[C@H]1N2CCc1ccccc1 | -22 | -13

(listing goes on)
SMILES | Vaccinia inh | Vaccinia inh Venus
CCNC(=O)C[C@H]1CC[C@H]2[C@@H](COc3ccc(NC(=O)Nc4ccccc4F)cc3C(=O)N2C)O1 | 4 | 0
C[C@@H]1CN([C@@H](C)CO)C(=O)c2cc(-c3ccc(C#N)cc3)cnc2O[C@@H]1CN(C)C(=O)Nc1ccccc1 | 9 | -3
O=C(CC1CC1)N1CC2(C1)[C@H](c1ccccc1)[C@@H](CO)N2CC1CCOCC1 | 1 | 4
Cc1noc(C)c1NC(=O)N(C)C[C@H]1Oc2ccc(NC(=O)CCC(F)(F)F)cc2CC(=O)N([C@H](C)CO)C[C@@H]1C | 11 | 11
Cc1noc(C)c1S(=O)(=O)Nc1ccc2c(c1)CC(=O)N([C@H](C)CO)C[C@H](C)[C@H](CN(C)C(=O)Nc1ccccc1)O2 | 10 | 9
Cc1ccccc1S(=O)(=O)NCC[C@H]1CC[C@@H](NC(=O)C2CCOCC2)[C@@H](CO)O1 | 0 | 2
O=C(C1CCOCC1)N1C[C@H]2[C@@H](c3ccccc31)[C@H](CO)N2Cc1ccc(Cl)cc1 | -4 | 9
COc1cccc(-c2cnc3c(c2)C(=O)N([C@@H](C)CO)C[C@@H](C)[C@@H](CN(C)Cc2ccc(F)cc2)O3)c1 | -18 | -15
Cc1ccc(S(=O)(=O)Nc2cccc3c2O[C@H](CN(C)C(=O)NC2CCCCC2)[C@H](C)CN([C@H](C)CO)C3=O)cc1 | -21 | -8
COc1cccc(C(=O)Nc2ccc3c(c2)C(=O)N(C)[C@@H]2CC[C@H](CC(=O)NCCCN4CCOCC4)O[C@H]2CO3)c1 | -1 | 10

Full records from above:
Cc1ccc(S(=O)(=O)Nc2cccc3c2O[C@H](CN(C)C(=O)NC2CCCCC2)[C@H](C)CN([C@H](C)CO)C3=O)cc1 in the list: Vaccinia inh = -21; Vaccinia inh Venus = -8
COc1cccc(-c2cnc3c(c2)C(=O)N([C@@H](C)CO)C[C@@H](C)[C@@H](CN(C)Cc2ccc(F)cc2)O3)c1 in the list: Vaccinia inh = -18; Vaccinia inh Venus = -15

Following part.
SMILES | Vaccinia inh | Vaccinia inh Venus
CN(C)C(=O)C[C@H]1CC[C@@H]2[C@H](COc3ccc(NC(=O)NCc4ccccc4)cc3C(=O)N2C)O1 | 0 | 7
C[C@@H]1CN([C@H](C)CO)C(=O)c2cc(NC(=O)c3ccncc3)ccc2O[C@@H]1CN(C)S(C)(=O)=O | 7 | 6
C[C@H]1CN([C@@H](C)CO)C(=O)c2cc(Br)cnc2O[C@@H]1CN(C)C(=O)NC1CCCCC1 | 6 | 1
C[C@@H]1CN([C@H](C)CO)C(=O)c2cc(NS(=O)(=O)c3cccs3)ccc2O[C@@H](C)CCCCO[C@@H]1CN(C)CC1CCCCC1 | -25 | -16
COc1ccccc1S(=O)(=O)N[C@@H]1C=C[C@@H](CC(=O)N2CCCCC2)O[C@@H]1CO | 21 | 23
C[C@H](CO)N1C[C@H](C)[C@@H](CN(C)Cc2ccncc2)Oc2c(NC(=O)C3CCOCC3)cccc2C1=O | 5 | 0
C[C@@H]1CCCCO[C@H](CN(C)C(=O)c2ccccc2)[C@H](C)CN([C@H](C)CO)C(=O)c2cc(NC(=O)C3CCCCC3)ccc2O1 | -6 | -15
C[C@H](CO)N1C[C@H](C)[C@@H](CN(C)S(C)(=O)=O)Oc2ccc(NS(=O)(=O)c3ccc(Cl)cc3)cc2CC1=O | -5 | 16
C[C@@H]1CN([C@H](C)CO)C(=O)CCCn2nncc2CO[C@@H]1CN(C)S(=O)(=O)c1ccccc1 | 15 | 6
Cc1ccc(S(=O)(=O)N(C)C[C@H]2OCCCC[C@H](C)Oc3ccc(NC(=O)NC(C)C)cc3C(=O)N([C@@H](C)CO)C[C@H]2C)cc1 | 8 | 2
C[C@@H]1CN([C@H](C)CO)C(=O)c2cc(C#CCC3CCCC3)cnc2O[C@@H]1CN(C)Cc1ccccn1 | ? | .
CC(C)C#Cc1ccc2c(c1)O[C@@H](CN(C)S(C)(=O)=O)[C@@H](C)CN([C@@H](C)CO)S2(=O)=O | 15 | 4
C[C@H](CO)N1C[C@H](C)[C@H](CN(C)Cc2ccc(F)cc2)Oc2ncc(-c3cncnc3)cc2C1=O | 14 | 20
Cc1cccc(S(=O)(=O)N2C[C@@H]3[C@H](c4ccccc42)[C@@H](CO)N3CC2CCCC2)c1 | -10 | -7
CO[C@H]1CN(C)C(=O)c2cccc(C#N)c2OC[C@H]2O[C@H](CC[C@@H]2OC)CCN(C)C(=O)[C@H]1C | 9 | 3
COc1ccc(C#Cc2cnc3c(c2)C(=O)N([C@H](C)CO)C[C@H](C)[C@@H](CN(C)C(=O)c2ccccc2F)O3)cc1 | 13 | -2
CN1C(=O)c2cc(NC(=O)c3cccc(F)c3)ccc2OC[C@@H]2O[C@H](CC(=O)N3CCc4ccccc4C3)CC[C@H]21 | -14 | -5
C[C@H]1CN([C@@H](C)CO)C(=O)c2cc(-c3ccccc3F)cnc2O[C@H]1CN(C)C(=O)CN(C)C | 21 | 21
